# RE007 growth inh = qHTS Assay for Inhibitors of the HIV-1 protein Vpr; S. pombe RE007 Vpr strain, BacTiter-Glo ATP luminescence, 24 h; control for the full effect not named in the record; Potency, µM (titrated, usually from 92.2 µM), for inactives: at the top dose activity change, negative = less growth; 0.21% of 360,000 active; AID 651644, 2012; active = well fitted falling curve with a large enough effect; inconclusive = small, poorly fitted or top-dose-only effect; inactive = no such curve, though single readings can be large or run the other way;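 note: % is set by controls: 0 for no effect and ±100 for the full control effect; nearly all actives have a fitted effect of over 50% in size; the assay follows cell death caused by Vpr and the record does not say whether a fall means rescue or toxicity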
#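 Fission yeast strain RE007, carrying one chromosomally integrated HIV-1 vpr copy, was seeded at OD 0.01 in PMG+AL medium with 23 nL pinned compound. After 24 h at 30 °C and 99% humidity, viability was read by BacTiter-Glo luminescence.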
# Cruzain inh Det = qHTS Assay for Promiscuous and Specific Inhibitors of Cruzain (with detergent) | Cruzipain (Trypanosoma cruzi), P25779 | purified cruzain, Z-FR-AMC fluorescence, 0.01% Triton | Potency, µM, without a hit: max response, negative = inhibition, usual class: inhibitors | 0.43% of 200,000 active | AID 1478, 2009; active = well fitted curve in the direction sought with a large enough effect; inconclusive = small, poorly fitted or top-dose-only effect, or another doubt; inactive = no such curve, though single readings can be large; an effect the other way counts as inactive or inconclusive;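 note: plate controls were neutral wells for no effect and buffer without enzyme for full effect; nearly all actives have a fitted effect of over 40% in size; top concentration of the series not given in the record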
# Target sequence (P25779 123-467 limits assumed): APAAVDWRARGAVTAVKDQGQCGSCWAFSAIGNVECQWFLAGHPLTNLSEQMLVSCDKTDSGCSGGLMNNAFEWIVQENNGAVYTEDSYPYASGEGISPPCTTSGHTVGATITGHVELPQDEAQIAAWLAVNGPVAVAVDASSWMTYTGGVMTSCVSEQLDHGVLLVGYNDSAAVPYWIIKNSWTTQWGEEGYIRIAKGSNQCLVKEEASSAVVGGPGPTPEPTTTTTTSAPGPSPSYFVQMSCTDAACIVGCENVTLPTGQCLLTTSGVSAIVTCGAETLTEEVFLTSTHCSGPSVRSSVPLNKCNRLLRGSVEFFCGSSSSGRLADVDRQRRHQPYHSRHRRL
#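 Z-FR-AMC hydrolysis (2 uM substrate) by cruzain (1.5 nM) monitored kinetically at ex 360/em 450 nm after 15 min room-temperature compound exposure; 0.01% Triton X-100, pH 5.5, 5 mM DTT.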
# StopGo reporter = High Throughput Screening for Foot and Mouth Disease Virus Antivirals | human cells with a luciferase reporter of 2A StopGo recoding; control for the full effect not named in the record | Potency, µM (highest dose often 57.9 µM), inactives show at the top dose signal change, negative = less light | 1.2% of 410,000 active | AID 1159524, 2015; active = well fitted falling curve with a large enough effect; inconclusive = small, poorly fitted or top-dose-only effect; inactive = no such curve, though single readings can be large or run the other way; tested in HEK293T cells; note: % is set by controls: 0 for no effect and ±100 for the full control effect; nearly all actives have a fitted effect of over 45% in size; luciferase light after 4 h
# MARV entry inh = qHTS for inhibitors of binding or entry into cells for Marburg Virus; AID 540276, 2011; 1.8% of 300,000 active; Marburg virus pseudotyped entry inhibition, cell reporter; control for the full effect not named in the record; about a third of the inactives were read at about 46 µM; Potency, µM (highest dose often 37.8 µM), for the others: top-dose activity change, negative = inhibition, usual class: inhibitors; active = well fitted inhibition curve with a large enough effect; inconclusive = small, poorly fitted or top-dose-only effect, or effect the other way; inactive = flat fitted curve, though single readings scatter; tested in HEK293 cells; about a fifth of its hits are not listed in these tables; note: % is set by controls: 0 for no effect and ±100 for the full control effect; luciferase read-out
# SARS PLP yeast = qHTS of Yeast-based Assay for SARS-CoV PLP; S. cerevisiae expressing SARS-CoV PLpro, growth rescue; control for the full effect not named in the record; Potency, µM (doses to about 32.9 µM), without a hit: at the highest dose activity, positive = growth rescue; 0.19% of 330,000 active; AID 485353, 2010; note: 0% is about no effect; nearly all actives have a fitted effect of over 55% in size; growth read by luminescence after 48 h
# NS1 function inh = qHTS Assay for Inhibitors of Influenza NS1 Protein Function. S. cerevisiae slowed by influenza A NS1, growth recovery by OD600. Potency, µM (titrated, usually from 46.1 µM), for inactives: top-dose activity, positive = more growth. 0.4% of 270,000 active; note: actives are rising curves; nearly all actives have a fitted effect of over 50% in size
#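 Read-out: OD600 growth recovery of NS1-expressing budding yeast. Cells grown overnight at 30C in -URA glucose medium, washed, resuspended and diluted 1:100 in 2% galactose assay medium, pH 6.0. Same strain lacking NS1 served as positive control.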
# LASV entry inh = qHTS for Inhibitors of binding or entry into cells for Lassa Virus | Lassa virus pseudotype entry inhibition, cell reporter; control for the full effect not named in the record | Potency, µM (doses to about 37.9 µM), without a hit: at the top dose activity change, negative = inhibition, most hits filed as inhibitors | 1.2% of 300,000 active | AID 540256, 2011; active means well fitted inhibition curve with a large enough effect; inconclusive means small, poorly fitted or top-dose-only effect, or effect the other way; inactive means flat fitted curve, though single readings scatter; tested in HEK293 cells; note: % is set by controls: 0 for no effect and ±100 for the full control effect; nearly all actives have a fitted effect of over 50% in size; luciferase read-out
# Cruzain inh noDet = qHTS Assay for Promiscuous and Specific Inhibitors of Cruzain (without detergent); Cruzipain (Trypanosoma cruzi), P25779; 2.3% of 200,000 active; purified cruzain, Z-FR-AMC fluorescence, no detergent; AID 1476, 2009; Potency, µM, for the others: max response, negative = inhibition, most hits filed as inhibitors; active = well fitted curve in the direction sought with a large enough effect; inconclusive = small, poorly fitted or top-dose-only effect, or another doubt; inactive = no such curve, though single readings can be large; an effect the other way counts as inactive or inconclusive;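 note: plate controls were enzyme without inhibitor for no effect and buffer without enzyme for full effect; nearly all actives have a fitted effect of over 40% in size; top concentration of the series not given in the record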
#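 Purified cruzain at 1.5 nM, pre-incubated 15 min with compound at room temperature in 100 mM sodium acetate pH 5.5, 5 mM DTT, 0.00005% Triton X-100. Reaction started with 2 uM Z-FR-AMC; AMC fluorescence increase over 60 s gives rate.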
# Active calls of the source: *; u = inconclusive; x = no result given; & = joins results of further samples; [ ] = another dose, or the depositor's remark. Unless noted, calls come from the whole dose curve; as a rule, active means well fitted rising curve with a large enough effect; inconclusive means small, poorly fitted or top-dose-only effect; inactive means no such curve, though single readings can be large or run the other way. Potency is the fitted concentration of half-maximal effect.
SMILES,RE007 growth inh,Cruzain inh Det,StopGo reporter,MARV entry inh,SARS PLP yeast,NS1 function inh,LASV entry inh,Cruzain inh noDet
CCCc1nc2nc(C)c(NS(=O)(=O)c3ccc(C4CCCCC4)cc3)c(=O)n2[nH]1,2.6%,x,16.5%,15.6%[46.1 µM],0.6%,4.6%,1.4%,x
N=C1C(c2nc(-c3ccc(Br)cc3)cs2)=C(O)CN1NC(=O)c1ccc([N+](=O)[O-])cc1,8.5%,x,-1.6%,-19.4%[46.1 µM],0.9%,1.7%,0.2%,x
CC1(C)C([N+](=O)[O-])C(c2ccc(Cl)cc2)NC(c2ccc(Cl)cc2)C1[N+](=O)[O-] (stereo not given),5.8%,-6.4%,0.0%,x,-25.7%,-25.2%,x,u
COC(=O)c1ccc(CN2CCN(CC=C(C)C)C(CCO)C2)cc1 (stereo not given),-10.0%,x,-10.3%,19.2%[46.1 µM],-3.5%,3.3%,-6.7%,x
COCCCNC(=O)CC1C[C@H](C(=O)N2CCOCC2)[C@@]2(CCC3CCCC3)c3[nH]c4ccc(OC)cc4c3CCN2C1=O (stereo not given in full),-13.1%,x,-18.6%,-9.7%,4.0%,x,x,x
CCc1cc(-c2n[nH]c(=S)n2C(C)c2ccccc2)cs1 (stereo not given),7.9%,-7.2%,-6.8%,-23.0%,13.2%,10.5%,u,-8.8%
Cc1cc(C)c(S(=O)(=O)N2CCOC2CNC(=O)C(=O)NCCc2c[nH]c3ccccc23)c(C)c1 (stereo not given),1.9%,-7.9%,-21.0%,-20.7%,-2.0%,u,u,-6.5%
CCC(C)N(C(=O)c1csnn1)C(C(=O)NC1CCCC1)c1c(F)cccc1Cl (stereo not given),7.1%,x,12.0%,-18.6%[46.1 µM],9.8%,8.4%,20.7%[46.1 µM],x
COC(=O)c1ccc(CN2C(=O)NC(c3ccccc3)(c3ccccc3)C2=O)o1,-3.6%,x,0.6%,u,5.2%,6.0%,1.2%,x
COC(=O)c1cc2c(s1)-c1ccccc1CC2,u,-4.1%,28.0%,3.2%[46.1 µM],-10.6%,0.2%,2.2%,u
CN1CCN(c2cc(C(F)(F)F)nc(-c3ccccn3)n2)CC1,8.0%,x,-2.2%,2.8%[46.1 µM],-1.0%,4.5%,7.4%[46.1 µM],x
OC1C2CN3CCN(C2)CC1(Cc1ccccc1)C3 (stereo not given),-7.1%,-0.8%,-22.0%,15.6%,7.7%,8.7%,10.8%,6.0%
CN(C)CC1CCCCC1OC(=O)Cc1ccc(Cl)c([N+](=O)[O-])c1 (stereo not given),6.8%,x,-3.3%,-10.4%[46.1 µM],-0.8%,11.7%,14.4%,x
Cc1ccc(/C=N/NC(=O)COc2ccc(Cl)c(C)c2)o1,31.8%,x,4.4%,-12.8%[46.1 µM],-2.2%,-7.4%,-9.1%,x
O=C(c1cccc(F)c1)N1CCN(C(=O)C(c2ccccc2)c2ccccc2)CC1,0.8%,x,u,13.8%[46.1 µM],-4.1%,0.6%,-11.3%,x
Cc1cccc(-c2cccc(NC(=O)C3CCCN(C(=O)c4cccnc4)C3)c2)c1 (stereo not given),0.0%,x,-18.0%,x,-1.6%,7.4%,x,x
CC(C)NC(=O)COc1coc(CN2CCN(C(=O)c3ccco3)CC2)cc1=O,-11.8%,x,-9.2%,-1.8%,1.3%,x,13.4%,x
O=C(Nc1ccc(Cl)cc1)NC1CCCCC1,3.6%,-1.4%,76.5%[activator],-18.1%,1.8%,-5.7%,-28.0%,-2.2%
CCC(=O)N1CCc2cc(CNC(=O)C(CC)c3ccccc3)ccc21 (stereo not given),x,1.5%,-1.0%,x,x,x,5.6%[46.1 µM],-11.5%
CCOC(=O)c1c(C)n(C)c2ccc(OCCN(C)C)cc12,2.7%,-1.7%,-13.7%,-16.7%,3.2%,5.1%,15.6%,-0.1%
CC1CCC(NC(=O)C2c3ccccc3C(=O)N2Cc2cccs2)CC1 (stereo not given),9.1%,-2.4%,6.1%,-13.7%,8.8%,3.9%,3.55µM*,8.9%
NC(=O)c1cc(-c2ccccc2)nc(Oc2ccccc2)n1,-6.1%,-2.9%,5.5%,3.2%&3.2%,-2.0%,-9.3%,-7.0%,-14.3%
Cc1ccc(-n2ncc3c(NCc4ccccc4)ncnc32)cc1,-5.3%,5.3%,9.4%,5.1%,9.0%,17.4%,u,-25.3%
Cc1ccc(CNC(=O)CCNC(=O)c2ccc(Br)o2)cc1,-4.4%,3.7%,0.7%,6.9%,-2.9%,-1.3%,-2.7%,-10.9%
O=C(CCN1C(=O)C2CCCCC2C1=O)NNC(=O)c1cccc(Cl)c1 (stereo not given),-6.6%,4.7%,21.5%,1.8%,-2.9%,30.4%,19.3%,-0.5%
SMILES,RE007 growth inh,Cruzain inh Det,StopGo reporter,MARV entry inh,SARS PLP yeast,NS1 function inh,LASV entry inh,Cruzain inh noDet
CC(=O)Nc1cccc(NC(=O)CSc2nc(=O)n(CCN3CCOCC3)c3c2CCC3)c1,8.1%,x,-23.6%,u,-1.1%,x,3.0%,x
Cc1cc(C(C)(C)C)oc1C(=O)N(CC(=O)NC1CCCC1)Cc1ccc(Cl)cc1,6.7%,-2.0%,x,u,-7.5%,7.2%,-20.8%,3.5%
O=C(CSc1nc(-c2ccc(F)cc2)cs1)N1CCOCC1,7.4%,2.2%,-3.1%,u,0.2%,-7.6%,u,11.3%
O=C(Nc1ccc(N2CCN(C(=O)c3ccccc3)CC2)cc1)c1cc2ccccc2o1,0.5%,-6.3%,14.1µM*,u,-0.9%,-46.5%,14.1µM*,-21.0%
O=C(NCc1ccc2c(c1)OCO2)c1nn(-c2ccccc2)c(=O)c2ccccc12,1.6%,-2.6%,-24.0%,-18.7%,-3.3%,5.6%,-21.1%,-8.5%
O=C(Nc1ccccc1)C1CC(=O)N(C2CCCCC2)C1 (stereo not given),6.8%,2.2%,-16.6%,14.1%,4.1%,-21.6%,-5.2%,3.7%
O=c1[nH]c(=O)n(C2CC(O)C(CO)O2)cc1Br (stereo not given),14.0%,x,-6.6%,u,x,x,3.5%[46.1 µM],x
CCOC(=O)c1cccc(NC(=O)CCS(=O)(=O)c2ccc3c(c2)CCN3C(=O)CC)c1,x,-0.7%,-22.2%,-15.2%[46.1 µM],x,x,0.2%[46.1 µM],-5.5%
O=C(NNS(=O)(=O)c1ccc(F)cc1)c1ccc(O)cc1,1.7%,x,0.0%,x,17.8%,-12.1%,x,x
O=C(CCC1CCCN(C(=O)c2ccc3[nH]ccc3c2)C1)N1CCN(c2ccccn2)CC1 (stereo not given),-9.6%,x,u,u,0.5%,-2.5%,u,x
CC(C)(C)NC(=O)NC(=O)CN1c2cccc3cccc(c23)S1(=O)=O,-9.8%,x,-12.9%,-66.8%[46.1 µM],-2.2%,0.7%,12.6%[46.1 µM],x
O=C(c1ccc(CNS(=O)(=O)c2cccc(C(F)(F)F)c2)cc1)N1CCOCC1,6.3%,1.0%,3.7%,8.3%,24.7%,0.6%,-14.8%,u
OCCN(Cc1ccccc1)Cc1ccccc1Cl,-8.1%,5.3%,-15.2%,-0.3%,4.7%,-14.5%,-15.6%,1.8%
Cc1nc2ncnn2c(C)c1CCC(=O)NCCc1ccccc1,12.3%,-1.7%,34.1%[activator],12.0%,0.7%,8.5%,15.4%,-3.3%
CC(C)(C)c1ccc(OCC(O)CN2CCCC2)cc1 (stereo not given),-1.7%,x,6.9%,2.2%,0.4%,-0.7%,-2.8%,x
CCCOC(=O)C1=C(C)NC2=C(C(=O)CCC2)C1c1cccs1 (stereo not given),8.3%,-3.7%,-21.5%,24.3%,1.2%,-11.7%,u,-0.2%
Cc1cc2cc(CNC(=O)c3cccc([N+](=O)[O-])c3)ccc2n1C,-4.4%,-3.4%,-5.1%,20.9%,3.0%,20.3%,-7.0%,u
CC(C)(C)c1ccc(-c2nnc(SCC(=O)NC3CCS(=O)(=O)C3)n2N)cc1 (stereo not given),-10.9%,x,37.4%[activator],48.1%[46.1 µM],-4.9%,x,16.8%,x
O=C(CCS(=O)(=O)c1cc(Br)cc2c1N(C(=O)C1CC1)CC2)NCC1CCCO1 (stereo not given),-1.6%,0.1%,-11.1%,-4.8%&-4.8%[46.1 µM],-7.4%,4.7%,-4.4%,-10.6%
O=C(CC1C(=O)N(c2ccccc2)C(=O)N1CCc1cccs1)Nc1ccc(Cl)cc1 (stereo not given),x,-4.4%,32.6%[activator],u,x,x,u,2.4%
CCOC(=O)c1[nH]c2c(c1Cc1ccccc1C)C(=O)CC(c1cc(OC)ccc1OC)C2 (stereo not given),x,-3.8%,u,u,x,x,-17.6%[46.1 µM],-4.7%
CCN(CC)c1ccc(NC(=O)C2CCCN(S(=O)(=O)c3ccc4c(c3)oc(=O)n4C)C2)c(C)c1 (stereo not given),x,1.9%,u,1.0%[46.1 µM],x,x,0.6%[46.1 µM],6.1%
COc1ccc(NC(=O)C2CCN(C(=O)c3ccccc3)CC2)cc1OC,-1.1%,5.7%,11.1%,27.7%,5.6%,2.5%,u,-10.1%
N#Cc1c(Nc2ccc(F)cc2)sc(C(=O)c2ccc(F)cc2)c1N,4.1%,1.4%,x,-15.9%,10.4%,-1.0%,u,-0.8%
CCNc1nc(N)nc(Oc2ccc(OCC)nn2)n1,-8.2%,3.5%,x,1.6%,3.2%,1.0%,8.1%,-1.1%
COc1ccc(-n2c(=O)c3c4c(sc3n(Cc3cc(C)ccc3C)c2=O)CN(C(C)=O)CC4)c(OC)c1,x,-6.0%,-10.3%,u,x,x,x,u

# Bioassay records as filed in PubChem.
